T cruzi repl: blocks replication of Trypanosoma cruzi; T. cruzi beta-gal in NIH3T3, luminescence, 90 h; inhibition, % (no concentration beside the values); 300,000 compounds, 1.4% hits; AID 1885;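 active means mean inhibition across valid replicates above about 55%, limit read from the data; inconclusive means mean below that limit but half or more replicates reach it; inactive means mean below it, under half of replicates reach it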;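 further: signal also drops with host cell toxicity which is not excluded here; 0% = plate median of DMSO wells and 100% = zero luminescence signal; higher percent means less beta-gal luminescence so fewer parasites; stock transfer was 50 nL into about 50 µL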
Beta apoptosis: blocks beta cell apoptosis; INS-1E cytokine-induced death, ATP luminescence, 48 h; percent of positive-control rescue, neutral wells zero; 300,000 compounds, 0.8% hits; protection from apoptosis, % (test concentration not listed); AID 435005;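 active means all replicates at 75% or more, or half of them and the mean; inconclusive means half reach 75% but not the mean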;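 further: 0% = cytokine-treated negative control wells and 100% = positive control rescue; higher means more ATP so stronger rescue from cytokine killing; wells of about 40 µL received 100 nL stock; the first replicate is given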
LANA-H2B inh: blocks KSHV LANA binding to histone H2A/H2B; Q9QR71; cell-free LANA-H2A/H2B peptide, fluorescence polarization; inhibition, % (no concentration beside the values); 320,000 compounds, 0.6% hits; AID 2629; in the data active means inhibition mostly above about 10%, no sharp cut-off; inactive means mostly below about 6.7%;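 further: stock transfer was 7.5 nL into about 10 µL; 0% = median of vehicle wells and 100% = median of positive control wells; one replicate is shown; the record names a cut of 25% in any replicate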
B2AR ag: agonists of human beta-2 adrenergic receptor inducing internalization; Am2.2-beta2AR cells, FAP receptor internalization, flow cytometry; reference of the scale not given here; response, % (concentration not given with the values); 340,000 compounds, 0.43% hits;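 active means response above a set limit, near 3 SD of response in nonfluorescent compounds, cut at about 42% in these data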;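 further: stock transfer was 100 nL into about 11 µL; a reference agonist was the positive control; negative values mostly stem from fluorescent compounds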
Target sequence (P07550 whole entry, looked up): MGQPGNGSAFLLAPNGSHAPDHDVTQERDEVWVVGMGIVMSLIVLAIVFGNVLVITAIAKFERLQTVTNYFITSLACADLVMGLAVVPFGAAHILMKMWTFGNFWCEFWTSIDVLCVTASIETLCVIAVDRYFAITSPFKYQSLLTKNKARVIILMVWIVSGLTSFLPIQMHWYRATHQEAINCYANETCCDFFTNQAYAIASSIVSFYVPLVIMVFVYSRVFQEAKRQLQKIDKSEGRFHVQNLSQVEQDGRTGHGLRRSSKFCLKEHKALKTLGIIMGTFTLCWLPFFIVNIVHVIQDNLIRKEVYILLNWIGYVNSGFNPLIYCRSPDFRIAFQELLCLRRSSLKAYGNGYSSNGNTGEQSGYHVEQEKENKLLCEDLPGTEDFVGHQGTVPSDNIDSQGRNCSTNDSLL
ALR H2O2 inh: inhibitors of human sulfhydryl oxidase ALR. AID 485317. 290,000 compounds, 3.8% hits. inhibition, % (concentration not given with the values). P55789. purified ALR, DTT oxidation, H2O2 HRP-luminol luminescence;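 active means mean and each replicate at 75% or more; inconclusive means only one of the two met; inactive means neither met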;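 further: stock transfer was 7.5 nL into about 7.5 µL; 0% = neutral wells and 100% = wells with inactivated enzyme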
Target sequence (P55789 whole entry, looked up): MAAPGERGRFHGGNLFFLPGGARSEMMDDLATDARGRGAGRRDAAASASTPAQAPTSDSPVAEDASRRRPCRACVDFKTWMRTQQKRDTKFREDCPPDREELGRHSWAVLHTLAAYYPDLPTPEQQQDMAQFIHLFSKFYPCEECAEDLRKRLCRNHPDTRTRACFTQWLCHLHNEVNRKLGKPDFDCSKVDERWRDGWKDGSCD
Bfl-1 A1 inh: inhibitors of the anti-apoptotic protein A1, read as caspase activation. MEF A1-2A-BIM cells, Caspase-Glo 3/7 luminescence, 3 h; percent of clofoctol response, vehicle zero. caspase activation, % (no concentration beside the values). 330,000 compounds, 0.066% hits;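 active means over half of replicate activation scores above 10%, or exactly half above 10 with the replicate mean above 10; inconclusive means replicate mean below 10 yet half the replicates above 10; inactive means over half of replicates below 10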;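 further: wells of about 30 µL received 50 nL stock; many hits fall short of the cut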
Calb FLC: C. albicans growth modulation with fluconazole; AID 1979; growth inhibition, % (concentration not given with the values); 300,000 compounds, 0.57% hits; C. albicans CaCi-2 (fluconazole-resistant clinical isolate) + fluconazole, Alamar Blue growth, 48 h;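 active means most replicates above 75%; inconclusive means exactly half above 75%; inactive means most below 75%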;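 further: all wells also contain fluconazole at 8 µg/ml as a sub-toxic cotreatment; 0% = median of DMSO wells and 100% = median of geldanamycin control wells; wells of about 8 µL received 7.5 nL stock; the first replicate is given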
rRNA inh HTS: inhibitors of bacterial rRNA selective over humanized ribosomes; AID 720706; 350,000 compounds, 1.6% hits; E. coli WT GFP vs humanized-ribosome RFP mutants, fluorescence, 24 h; hits give low values; DMSO median 0, no signal -100; GFP signal change (wild-type ribosome), % (test concentration not listed);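 active means significant combined selectivity score with lowered wild-type GFP, culture density cut under 30%, mutant RFP and density less affected; inactive means any of these conditions unmet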; further: one replicate is shown; some compounds called inactive have numbers as strong as hits
rRNA inh HTS OD600: second read-out of rRNA inh HTS, no call of its own (marks repeat the call); OD600 change, %; measured here: OD600 growth;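 optical density of the mix in the first replicate; 0 = DMSO median and -100 = no signal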
rRNA inh HTS RFP: also measured in rRNA inh HTS; calls as there; RFP signal change, %; measured here: RFP humanized mutant strains;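 first replicate; 0 = DMSO median and -100 = no signal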
* hit, by the source's call; ? = inconclusive; · = no result given. An excerpt, so the mix of outcomes need not match the whole.

Start of the data: the first two compounds, to show the layout:
Molecule,T cruzi repl,Beta apoptosis,LANA-H2B inh,B2AR ag,ALR H2O2 inh,Bfl-1 A1 inh,Calb FLC,rRNA inh HTS,rRNA inh HTS OD600,rRNA inh HTS RFP
O=C(NCc1ccc(C(F)(F)F)cc1)C1CC(c2ccc(C(F)(F)F)cc2)=NO1 (centres undefined),-22.3,-1.7,-7.5,2.8,·,1.2,10.1,4.7,1.5,0.1
CC1(c2ccc3c(c2)OCCCO3)NC(=O)N(CC(=O)Nc2cccc(C#N)c2)C1=O (centres undefined),·,1.4,10.5,-6.3,·,1.4,·,-1.1,-5.1,-1.5

The listing, previewed entries included:
Molecule,T cruzi repl,Beta apoptosis,LANA-H2B inh,B2AR ag,ALR H2O2 inh,Bfl-1 A1 inh,Calb FLC,rRNA inh HTS,rRNA inh HTS OD600,rRNA inh HTS RFP
O=C(NCc1ccc(C(F)(F)F)cc1)C1CC(c2ccc(C(F)(F)F)cc2)=NO1 (centres undefined),-22.3,-1.7,-7.5,2.8,·,1.2,10.1,4.7,1.5,0.1
CC1(c2ccc3c(c2)OCCCO3)NC(=O)N(CC(=O)Nc2cccc(C#N)c2)C1=O (centres undefined),·,1.4,10.5,-6.3,·,1.4,·,-1.1,-5.1,-1.5
COc1ccc(C(=O)/C=C/C(=O)N(CC(=O)NC2CCCCC2)Cc2cccs2)c(O)c1,-18.5,39.0,-1.0,114.8*,1.0,26.5*,-15.5,-5.3,-10.5,-1.5
CCN1C(=O)c2cccc3c(NC(=O)c4ccc(OC)c(OC)c4)ccc1c23,8.0,·,0.7,4.1,-40.5,1.1,-1.5,-9.2,-8.5,-1.6
COc1ccc(C(C(=O)NC2CCCC2)N(Cc2cccs2)C(=O)c2ccn[nH]2)cc1OC (centres undefined),-1.2,-2.4,4.9,-1.3,·,2.1,-4.2,4.8,0.5,-6.5
Cc1ccc(C(=O)NC2CCN(CC(=O)Nc3ccccc3Cl)CC2)cc1,4.2,-0.1,-1.8,-8.6,0.4,0.6,-2.0,-11.7,-7.5,-2.9
CC1CN(C(=O)c2ccc(NS(=O)(=O)c3cccc(Cl)c3)cc2)CC(C)O1 (centres undefined),-7.5,·,·,6.0,·,·,-1.8,2.2,0.2,3.5
COc1cccc(NC(=O)CCc2nc(-c3cccs3)no2)c1,-2.1,-6.7,-3.8,-7.2,-8.8,-0.1,-7.1,·,·,·
O=C(Nc1ccc(O)c2c(=O)cc(-c3ccccc3Cl)oc12)c1ccccc1Cl,2.3,-0.8,-2.9,0.1,·,0.3,-10.2,-2.2,2.1,-0.1
CCCCn1c(N)c(N(CCC(C)C)C(=O)c2cccc(-n3cnnn3)c2)c(=O)[nH]c1=O,5.4,-3.9,-0.6,-1.2,-12.8,0.1,-1.8,-0.5,8.5,-3.8
Cc1ccc(SCC(=O)Nc2ccc3c(c2)C(=O)NC3=O)cc1,-12.3,-3.4,-1.9,-2.5,1.2,0.0,-5.6,1.6,10.0,1.5
CCOC(=O)C1CCN(C(=O)Cc2cccc3ccccc23)CC1,-11.6,-4.8,0.5,1.4,-4.9,-0.1,1.5,·,·,·
Cc1ccc(N(CC(=O)Nc2cc(C)cc(C)c2)S(=O)(=O)c2c(C)noc2C)cc1,25.7,102.0*,-1.3,15.0,-17.7,0.6,15.4,-15.8,-22.1,-3.9
O=C(CN1CCCC1)NC(=O)NC1CCCC1,-12.6,-2.6,-6.5,-5.0,0.5,1.8,2.2,9.5,13.9,0.1
O=C(O)c1ccc(NC(=O)c2cn(-c3ccccc3)nc2-c2cccc(Cl)c2)cc1,-4.1,0.3,1.6,0.1,-1.4,-0.4,-1.2,-41.6,-57.0,-7.5
O=C(CCCN=C1NS(=O)(=O)c2ccccc21)OCC(=O)c1ccc(F)c(F)c1,-0.8,·,1.0,-8.0,-7.9,0.4,1.1,-0.6,3.2,-1.1
NS(=O)(=O)c1ccc(NC(=S)NC(=O)C2CCCC2)cc1,-17.7,-5.5,2.1,-8.4,4.1,0.2,-1.3,9.8,7.6,5.6
CC(C)(C)c1cc(C(=S)N2CCN(CCO)CC2)cc(C(C)(C)C)c1O,27.6,-3.1,-0.8,5.8,16.9,0.5,-0.6,·,·,·
Cc1cccc(C)c1NC(=O)CN(C)C(=O)CCC(=O)N1CCOCC1,·,0.5,0.5,2.2,0.5,-0.4,·,6.0,17.6,0.4
COc1ccc(CNC(=O)c2ccc(-c3ccccc3)cc2)cc1OC,11.9,0.3,4.0,-2.1,1.7,0.9,-8.7,·,·,·
COc1ccc(-c2cc(C(F)(F)F)n3nc(C(=O)O)nc3n2)cc1,-11.7,-4.0,-1.4,2.6,-2.5,0.1,-10.9,·,·,·
O=C(CCNC(=O)c1ccc([N+](=O)[O-])cc1)NNC(=O)c1ccncc1,-12.2,·,-2.6,-11.7,-0.8,-0.2,-4.7,16.6,16.1,-1.5
CCCc1nn(C)c(C(=O)Nc2ccc(Cl)cc2)c1Cl,-3.4,3.0,4.0,1.6,-9.9,-0.3,-2.0,11.1,12.9,-0.8
NC(=S)Nc1ccc(C(F)(F)F)cc1Cl,-3.7,-3.7,1.4,-1.2,·,0.7,-0.7,-19.3,-14.8,-6.4
CC(C)c1cc(C(=O)NC2CCCCC2)no1,-13.5,0.5,4.9,-4.5,-8.4,0.4,-2.2,·,·,·
CCOC(=O)c1ccccc1NC(=O)[C@@H]1CCCN1C(=O)OC(C)(C)C,-13.1,0.0,-3.7,-0.1,11.0,-0.5,-2.1,7.2,12.8,3.7
CC12CC(c3ccccc3O1)N(C(=O)c1ccco1)C(=S)N2c1ccc(F)cc1 (centres undefined),-1.2,-1.3,-2.2,8.5,·,0.4,25.5,·,·,·
CC1(C)Cc2c(C#N)c(N)sc(=S)c2CS1,6.3,·,-4.6,10.0,-8.6,0.3,2.9,·,·,·
Cc1cc(Cl)cc(Cl)c1OCCCCN(C)C,47.3,-1.6,-2.0,4.9,0.1,-0.2,5.5,9.9,4.1,-5.0
CCOc1ccc(NC(=NCc2ccc3c(c2)OCO3)SC2CC(=O)N(c3ccccc3)C2=O)cc1 (centres undefined),-8.1,·,-0.6,8.8,·,0.5,10.6,·,·,·

Single entries from above:
Value of COc1ccc(C(=O)/C=C/C(=O)N(CC(=O)NC2CCCCC2)Cc2cccs2)c(O)c1 under B2AR ag: 114.8*
Value of CCCc1nn(C)c(C(=O)Nc2ccc(Cl)cc2)c1Cl under LANA-H2B inh: 4.0

Other structures
Molecule,T cruzi repl,Beta apoptosis,LANA-H2B inh,B2AR ag,ALR H2O2 inh,Bfl-1 A1 inh,Calb FLC,rRNA inh HTS,rRNA inh HTS OD600,rRNA inh HTS RFP
COc1ccc2c(C(=O)CN3CCC(C)CC3)c[nH]c2c1,16.2,1.1,3.3,4.5,0.5,-0.7,-8.4,·,·,·
O=C(NCc1ccco1)/C(=C\c1cccs1)NC(=O)c1ccco1,-7.9,4.7,-4.8,14.3,-4.0,-0.3,29.2,16.9,13.6,2.2
O=C(CCCC(=O)Nc1ccc(Br)cc1)N/N=C/c1ccccc1,-3.9,-2.8,-3.7,1.0,-4.9,-0.7,0.3,13.6,13.7,-1.7
O=C(CCn1c(=O)c2ccccc2n(Cc2ccccc2)c1=O)NC1CCN(Cc2ccccc2)CC1,?,-7.3,-2.2,0.8,5.7,0.0,-5.3,14.8,7.6,1.0
COc1ccc(C2(c3ccc(OC)cc3)NC(=O)N(CC(=O)NC3(C#N)CCCC3)C2=O)cc1,·,-4.8,1.6,1.5,·,0.4,·,-2.4,-9.2,0.2
CN(CC(=O)Nc1ccccc1Cl)C(=O)COC(=O)c1ccc(-c2ccc(O)cc2)cc1,·,-9.5,4.3,-8.5,·,0.2,·,-2.1,6.8,-2.2
CCCCOc1ccc(-c2cn3ccccc3n2)cc1[N+](=O)[O-],10.6,10.7,7.1,-5.2,-9.2,-6.6,17.4,-16.5,-24.0,-6.3
COc1ccc(-c2nn(-c3ccccc3)cc2/C=C/C(=O)OCC(=O)Nc2ccc(C#N)cc2)cc1,33.9,6.6,-0.4,55.1*,-0.7,0.6,0.4,·,·,·
COc1ccc(S(=O)(=O)NCCOc2ccccc2)cc1C,-7.8,-3.0,2.9,-3.8,-14.2,0.0,32.8,-24.5,-35.8,-5.4
Cc1ccc(-c2cc(C(=O)N/N=C/C=C/c3ccco3)c3ccccc3n2)cc1C,-25.9,16.4,0.2,-0.9,-5.3,-0.6,-4.2,·,·,·
O=C(Nc1ccccc1)c1ccc(C(=O)Nc2ccccc2)nc1,-29.4,7.7,-2.5,-6.0,-3.0,0.2,6.8,11.8,8.0,-2.6
Nc1ncnc2nc(SCC(=O)N3CCN(c4ccccc4)CC3)[nH]c12,-11.8,0.5,7.5,-12.1,71.6,0.2,-35.8,·,·,·
COc1ccc(Cc2nnc(SCc3nc4ccccc4c(=O)[nH]3)n2C)cc1,9.4,5.6,5.7,2.6,45.3,0.9,2.1,·,·,·
Cc1ccccc1C(=O)c1cccn1CC(=O)NCc1ccccc1,-10.4,0.9,-11.5,-5.5,0.5,0.8,-3.4,-31.6,-38.7,-10.7
CN(CCO)c1nc(NCc2ccccc2)c2cnn(C)c2n1,-3.8,-11.0,-4.2,5.2,-2.1,-1.3,-14.7,-0.1,-1.4,-1.3
COc1cc(C)c(Cl)cc1S(=O)(=O)N1CCSC1,10.6,-7.3,-4.9,-1.7,15.3,?,18.5,4.0,3.5,11.1
Cc1ccc(NC(=O)C(C)Sc2nnc(C)n2C)cc1 (centres undefined),-9.2,0.6,0.8,1.8,-10.6,1.5,4.5,18.9,16.3,0.8
COc1ccc(C)cc1NC(=O)Nc1ccccc1,-2.4,-21.8,4.7,23.8,6.6,-1.1,-0.7,·,·,·
COc1cc(C(=O)NC2CCCC(C)C2C)ccc1OCC(=O)N1CCOCC1 (centres undefined),·,-0.9,-0.4,-0.2,7.2,-0.3,·,1.4,1.4,-0.5
COc1cc(OC)c2ccc(=O)oc2c1C(CC(=O)N1CCN(c2ccccc2)CC1)c1ccc2c(c1)OCO2 (centres undefined),7.4,2.1,0.2,-4.0,-40.8,-1.2,22.6,0.6,-3.9,-0.1
Cc1ccccc1NS(=O)(=O)c1ccc2c(c1)oc(=O)n2C,-6.0,-4.5,-0.6,-2.6,-6.4,0.2,-8.2,5.8,2.9,8.5
CSC1=N/C(=C/c2cccnc2)C(=O)N1Cc1ccccc1,2.8,2.9,0.1,3.0,8.1,-0.6,-1.0,2.2,-9.8,-2.5
Cc1ccc(C)c(N)c1,·,4.0,9.2,2.9,-9.0,-0.5,·,0.4,1.9,0.3
CC(Sc1nncn1C)C(=O)Nc1nnc(-c2ccccc2)s1 (centres undefined),-2.9,-11.2,1.0,-8.9,-12.7,0.1,1.4,4.5,-2.6,-5.2
